# High-throughput results from PubChem BioAssay.
# Beta cell apopt = beta cell apoptosis inhibition. INS-1E cytokine-induced death, ATP luminescence, 48 h; percent of positive-control rescue, neutral wells zero. AID 435005. protection from apoptosis, % (test concentration not listed). hit rate 0.8% among 300,000;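 active = all replicates at 75% or more, or half of them and the mean; inconclusive = half reach 75% but not the mean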;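 also: 0% = cytokine-treated negative control wells and 100% = positive control rescue; higher means more ATP so stronger rescue from cytokine killing; wells of about 40 µL received 100 nL stock; the first replicate is given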
# B2AR ag = human beta-2 adrenergic receptor agonism by FAP | P07550 | Am2.2-beta2AR cells, FAP receptor internalization, flow cytometry; reference of the scale not given here | response, % (test concentration not listed) | hit rate 0.43% among 340,000;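 active = response above a set limit, near 3 SD of response in nonfluorescent compounds, cut at about 42% in these data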;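 also: stock transfer was 100 nL into about 11 µL; a reference agonist was the positive control; negative values mostly stem from fluorescent compounds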
# Target sequence (P07550 whole entry, looked up): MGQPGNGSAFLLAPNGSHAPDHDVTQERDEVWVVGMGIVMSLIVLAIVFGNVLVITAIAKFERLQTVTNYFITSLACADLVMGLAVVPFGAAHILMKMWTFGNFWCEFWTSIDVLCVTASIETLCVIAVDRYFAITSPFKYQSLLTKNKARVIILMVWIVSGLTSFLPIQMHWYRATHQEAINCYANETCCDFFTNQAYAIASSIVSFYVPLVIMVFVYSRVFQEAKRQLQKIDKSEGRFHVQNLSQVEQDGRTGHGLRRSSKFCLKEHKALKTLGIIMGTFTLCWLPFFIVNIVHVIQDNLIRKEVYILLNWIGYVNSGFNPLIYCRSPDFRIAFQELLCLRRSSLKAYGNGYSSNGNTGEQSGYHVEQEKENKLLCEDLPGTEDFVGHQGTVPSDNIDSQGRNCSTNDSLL
# ALR H2O2 inh = inhibitors of human sulfhydryl oxidase ALR; hit rate 3.8% among 290,000; purified ALR, DTT oxidation, H2O2 HRP-luminol luminescence; inhibition, % (concentration not given with the values);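 active = mean and each replicate at 75% or more; inconclusive = only one of the two met; inactive = neither met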;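 also: stock transfer was 7.5 nL into about 7.5 µL; 0% = neutral wells and 100% = wells with inactivated enzyme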
# Target sequence (P55789 whole entry, looked up): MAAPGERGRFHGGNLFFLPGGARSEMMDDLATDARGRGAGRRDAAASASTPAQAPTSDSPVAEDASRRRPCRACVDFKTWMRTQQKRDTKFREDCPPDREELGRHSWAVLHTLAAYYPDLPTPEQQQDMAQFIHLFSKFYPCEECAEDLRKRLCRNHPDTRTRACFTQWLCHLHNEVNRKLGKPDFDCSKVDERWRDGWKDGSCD
# T cruzi inh = blocks replication of Trypanosoma cruzi; T. cruzi beta-gal in NIH3T3, luminescence, 90 h; inhibition, % (no concentration beside the values); hit rate 1.4% among 300,000; AID 1885;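 active = mean inhibition across valid replicates above about 55%, limit read from the data; inconclusive = mean below that limit but half or more replicates reach it; inactive = mean below it, under half of replicates reach it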;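 also: signal also drops with host cell toxicity which is not excluded here; 0% = plate median of DMSO wells and 100% = zero luminescence signal; higher percent means less beta-gal luminescence so fewer parasites; stock transfer was 50 nL into about 50 µL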
# LANA-H2A inh = blocks KSHV LANA binding to histone H2A/H2B | cell-free LANA-H2A/H2B peptide, fluorescence polarization | inhibition, % (no concentration beside the values) | hit rate 0.6% among 320,000 | AID 2629; in the data active = inhibition mostly above about 10%, no sharp cut-off; inactive = mostly below about 6.7%;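 also: stock transfer was 7.5 nL into about 10 µL; 0% = median of vehicle wells and 100% = median of positive control wells; one replicate is shown; the record names a cut of 25% in any replicate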
# Ecoli rRNA inh = selective bacterial rRNA inhibition in E. coli. E. coli WT GFP vs humanized-ribosome RFP mutants, fluorescence, 24 h; active compounds read low; DMSO median 0, no signal -100. GFP signal change (wild-type ribosome), % (concentration not given with the values). hit rate 1.6% among 350,000. AID 720706;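 active = significant combined selectivity score with lowered wild-type GFP, culture density cut under 30%, mutant RFP and density less affected; inactive = any of these conditions unmet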; also: one replicate is shown; some compounds called inactive have numbers as strong as hits
# Calb FLC = affects C. albicans growth with fluconazole; C. albicans CaCi-2 (fluconazole-resistant clinical isolate) + fluconazole, Alamar Blue growth, 48 h; growth inhibition, % (test concentration not listed); hit rate 0.57% among 300,000; AID 1979;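 active = most replicates above 75%; inconclusive = exactly half above 75%; inactive = most below 75%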;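 also: all wells also contain fluconazole at 8 µg/ml as a sub-toxic cotreatment; 0% = median of DMSO wells and 100% = median of geldanamycin control wells; wells of about 8 µL received 7.5 nL stock; the first replicate is given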
# Bfl-1 A1 inh = inhibitors of the anti-apoptotic protein A1, read as caspase activation; MEF A1-2A-BIM cells, Caspase-Glo 3/7 luminescence, 3 h; percent of clofoctol response, vehicle zero; caspase activation, % (concentration not given with the values); hit rate 0.066% among 330,000;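 active = over half of replicate activation scores above 10%, or exactly half above 10 with the replicate mean above 10; inconclusive = replicate mean below 10 yet half the replicates above 10; inactive = over half of replicates below 10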;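 also: wells of about 30 µL received 50 nL stock; many hits fall short of the cut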
# Ecoli rRNA inh OD600 = recorded beside Ecoli rRNA inh, whose call it bears; OD600 change, %; measured here: OD600 growth;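 optical density of the mix in the first replicate; 0 = DMSO median and -100 = no signal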
# Ecoli rRNA inh RFP = further read-out of Ecoli rRNA inh, marked with its call; RFP signal change, %; measured here: RFP humanized mutant strains;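 first replicate; 0 = DMSO median and -100 = no signal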
# * = called active by the depositor; i = inactive; ? = inconclusive; . = no result given. The list is partial (hit frequency here may not be typical).
SMILES,Beta cell apopt,B2AR ag,ALR H2O2 inh,T cruzi inh,LANA-H2A inh,Ecoli rRNA inh,Ecoli rRNA inh OD600,Ecoli rRNA inh RFP,Calb FLC,Bfl-1 A1 inh
Cc1cccc(OCCNC(=O)c2ccc(Cl)c(S(=O)(=O)NCc3cccnc3)c2)c1,8.4,5.0,-11.1,.,1.6,-9.3,-8.7,1.6,.,0.5
CCN(CC)CCNC(=O)c1ccc(NC(=O)c2ccccc2-c2ccc(C(F)(F)F)cc2)cc1,5.1,20.9,-12.6,29.3,8.0,7.0,9.6,7.9,5.4,0.5
CCOC(=O)C1=C(C)OC(N)=C(C#N)C1c1cc2cc(C)ccc2nc1N1CCCCC1 (stereo not drawn),-7.5,2.7,-5.6,-4.3,7.5,.,.,.,22.1,-0.9
CCOC(=O)CCCCCC(=O)Nc1ccc2c(c1)CC(=O)N([C@H](C)CO)C[C@@H](C)[C@H](CN(C)Cc1ccc3c(c1)OCO3)O2,-2.9,4.9,.,.,2.0,-9.6,-6.7,-0.6,.,-0.7
O=C(CSc1nnnn1-c1ccc(O)cc1)N1N=C(c2ccc3ccccc3c2)CC1c1ccccc1 (stereo not drawn),9.5,.,4.4,71.2*,0.4,.,.,.,29.6,0.1
COc1cccc(NC(=S)NN2C(C)CCCC2C)c1 (stereo not drawn),-7.5,2.7,-0.3,-9.6,-1.3,5.7,5.8,3.7,2.4,0.7
O=C(COc1ccc(-c2ccccc2)cc1)N/N=C/c1cc(O)ccc1Br,0.4,11.0,-1.2,-25.0,1.7,-55.9,-80.1,-23.2,2.8,-1.1
Cc1noc(C)c1C(=O)Nc1nnc(CC(C)C)s1,-0.1,3.5,-2.3,-20.1,1.0,4.8,2.2,-1.9,9.3,-0.6
CCCCn1c(N)c(N(CCOC)C(=O)C2CCN(c3ncnc4sc(C)c(C)c34)CC2)c(=O)[nH]c1=O,3.0,-5.3,-11.5,0.6,-6.0,-3.0,-4.5,2.8,3.0,-0.5
ONC(=Nc1ccccc1)C(=Nc1ccccc1)NO,-3.4,-4.6,54.6,-5.1,-2.7,.,.,.,4.3,0.5
N#Cc1ccccc1NC(=O)c1cc(=O)c2ccccc2o1,-8.6,-1.2,-4.6,-11.8,-9.5,5.2,6.1,-0.7,-0.9,0.2
CCOC(=O)c1ccc(NNC(=O)CC)c([N+](=O)[O-])c1,-10.7,2.9,24.9,-4.0,1.3,12.6,-1.1,-5.9,2.2,-0.5
CCn1cc(C(=O)NCCCOC)c(=O)c2cc(S(=O)(=O)N3CCCC3)ccc21,1.3,4.2,-28.9,11.6,14.0*,-0.6,4.0,-2.5,5.1,0.0
CC(=O)Nc1cccc(NC(=O)CSc2nnc(Cc3cccn3C)n2-c2ccc(C)cc2)c1,-1.2,-5.8,37.0,7.0,3.1,.,.,.,-7.7,0.0
COC(=O)c1sccc1NC(=S)N1CCN(c2cccc(C)c2C)CC1,-6.4,9.9,47.1,11.7,0.3,.,.,.,-6.6,1.1
CC(C)OC(=O)CC(=O)CSc1nc2c(c(-c3cccs3)c1C#N)CCC2,-3.4,-1.5,13.8,7.8,0.0,-22.6,-27.4,-3.7,-4.4,0.0
CCOC(=O)c1c(NC(=O)C(C)NCc2ccco2)sc2c1CCC(C)C2 (stereo not drawn),4.3,4.6,-3.2,22.3,2.4,.,.,.,-12.5,1.0
O=C(OCCC1Oc2cccnc2NC1=O)c1ccc(F)cc1 (stereo not drawn),-4.0,1.3,29.0,-15.3,-3.4,9.5,9.0,-6.6,-5.7,0.2
c1ccc(CCc2ccccc2-c2nc(-c3cccnc3)no2)cc1,4.2,-2.5,-3.9,29.6,11.7,.,.,.,-5.6,0.1
CC(C)[C@H](NC(=O)c1cccc(S(=O)(=O)N2CCOCC2)c1)C(=O)Nc1nc2ccccc2s1,3.9,2.9,-3.1,13.1,-0.9,.,.,.,15.6,-0.7
CCCn1c(=O)cc(N)n(-c2ccc(OC(F)(F)F)cc2)c1=O,-7.2,5.1,-2.7,16.3,-0.7,-8.5,1.0,-1.0,12.1,-0.7
Cc1ccccc1C(=O)NCC(=O)NNC(=S)NC(=O)c1ccccc1C,0.8,2.2,20.0,-5.9,0.1,.,.,.,-1.1,0.0
C[N+](C)(C)CCCNC(=O)c1ccc(/C=N/O)nc1,-1.2,-5.1,-8.2,-16.6,-4.3,9.8,10.8,2.5,-9.1,0.5
CCOc1ccc(OCC)c(NC(=O)C2CCN(S(=O)(=O)c3cnc[nH]3)CC2)c1,-5.0,8.2,-63.1,-16.6,i,.,.,.,.,-0.3
Cc1[nH]c2ccccc2c1/C=N/NC(=O)CNC(=O)c1ccc2c(c1)OCO2,2.0,-1.0,-4.6,-24.0,6.7,4.8,4.1,2.8,18.0,0.5
# (list continues)
SMILES,Beta cell apopt,B2AR ag,ALR H2O2 inh,T cruzi inh,LANA-H2A inh,Ecoli rRNA inh,Ecoli rRNA inh OD600,Ecoli rRNA inh RFP,Calb FLC,Bfl-1 A1 inh
CS(=O)(=O)Nc1ccccc1C(=O)Nc1cc2c(cc1C(=O)O)OCCCO2,-2.9,-11.8,4.9,-0.7,-0.4,-1.7,-4.2,1.0,2.9,-0.3
O=[N+]([O-])c1nn(-c2ccccc2)n(O)c1=NC1CCN(Cc2ccccc2)CC1,59.7,1.1,.,76.7*,-6.8,4.3,-6.0,7.1,57.2,-0.4
Cc1cccc2sc(NC(=O)c3ccc(NS(=O)(=O)c4cccs4)cc3)nc12,-1.8,29.3,-13.0,-0.6,5.8,.,.,.,2.9,-1.1
CCC(=O)N1CCc2cc(Br)cc(S(=O)(=O)N3CCCC(C(=O)NC(C)(C)C)C3)c21 (stereo not drawn),-3.2,-23.5,-7.9,14.8,-1.2,-6.0,-35.4,0.1,?,0.3
CCCCN(c1nc2ccccc2nc1Cl)S(=O)(=O)c1ccc(C)cc1,26.1,7.5,-2.6,20.2,-4.2,10.0,4.2,1.2,3.1,-1.7
CCOC(=O)C1=C(c2ccc(OC)cc2)C(=O)c2ccccc2C1=O,130.0*,.,-39.5,-14.7,-3.9,.,.,.,51.6,1.0
Cc1ccc(S(=O)(=O)NCCSc2nnnn2-c2cc(C)ccc2C)cc1,-3.9,-5.8,1.3,7.7,-2.0,.,.,.,-14.1,1.0
Cc1c(C(=O)N2CCC(C)CC2)sc2ncn(CC(=O)N3CCC(C)CC3)c(=O)c12,-6.0,-5.3,-12.1,0.0,8.5,1.4,3.1,-0.8,-7.7,-0.5
O=C(Cn1cnc2scc(-c3ccc(F)cc3)c2c1=O)N1CCOCC1,-1.7,-1.1,-2.3,4.4,-7.5,.,.,.,-2.2,-0.6
Cc1c(Cl)cccc1NC(=S)Nc1ccc(S(=O)(=O)Nc2ncccn2)cc1,1.9,-2.3,-0.7,.,0.2,.,.,.,.,0.4
O=C(c1ccc2c3c(cccc13)CC2)C1CCCN(Cc2ccc(OCCO)cc2)C1 (stereo not drawn),3.8,5.4,-3.4,?,0.4,-19.7,-22.0,42.0,-18.7,-0.9
CN(C)CCNC(=S)Nc1ccccc1Cl,-0.1,6.3,1.0,-2.5,1.5,9.1,12.7,-2.3,-4.7,-0.2
COc1ccc(CCN(C)C2CCCN(C(=O)c3sccc3C)C2)cc1OC (stereo not drawn),-3.1,4.8,-5.6,15.7,2.0,2.2,10.4,0.7,-4.2,0.4
CCCCNC(=O)/C(C#N)=c1\s/c(=C\c2ccccc2OC(F)F)c(=O)n1CCCOC,1.8,0.6,.,-0.6,-22.3,-3.0,-14.6,-7.6,-8.3,-0.7
CN1CCN(CC(=O)Nc2nc(-c3ccccc3)cs2)CC1,-1.1,-3.3,1.2,-4.4,3.6,.,.,.,4.7,0.0
CCCCNS(=O)(=O)c1ccc(OC)c2ncccc12,2.8,-8.9,-13.3,-4.0,-0.9,.,.,.,-1.7,-0.8
N#Cc1cccc(NC(=O)COC(=O)c2cc(S(=O)(=O)Nc3ccccc3Cl)ccc2O)c1,-3.3,15.8,-0.7,.,-8.0,-34.0,-30.1,-13.0,.,-0.3
CCOC(=O)c1sc(NC(=O)c2ccncc2)nc1C,3.3,-0.5,-4.4,18.1,8.5,.,.,.,11.7,-7.2
Cc1c(C(=O)NCc2n[nH]c(=S)n2-c2ccc(F)cc2)cccc1[N+](=O)[O-],-6.0,8.2,1.2,-6.8,-1.0,-0.4,-3.9,-4.2,-6.2,-0.8
O=C(NCc1ccc2c(c1)OCO2)c1cc(F)c(F)cc1Cl,-8.8,-0.8,.,-5.5,3.6,6.3,8.7,-0.4,-17.8,0.7
Cc1ccc2nc(-c3cccc(Br)c3)cc(C(=O)NC3=NCCS3)c2c1,-4.0,-0.7,-8.7,6.2,3.6,-0.1,0.8,14.7,27.3,0.5
OCCN1CCN(C(=S)NC2CCCC2)CC1,-6.1,6.5,.,-4.3,0.5,4.2,10.9,-1.5,88.3*,-0.5
Cc1cccc2sc(NC(=O)Cn3cccc3)nc12,-8.6,-1.1,.,-11.9,-0.3,1.5,2.3,2.4,-6.7,1.0
O=C(OCC(=O)N1CCN(c2ccccc2)CC1)C1=COCCO1,-0.6,-3.7,42.4,-7.8,4.1,.,.,.,1.0,0.2
O=C(CCCN1C(=O)c2cccc3cccc(c23)C1=O)N1CCN(c2ccccn2)CC1,3.3,-8.6,.,-11.5,-15.5,.,.,.,5.0,-0.1
# Next section.
SMILES,Beta cell apopt,B2AR ag,ALR H2O2 inh,T cruzi inh,LANA-H2A inh,Ecoli rRNA inh,Ecoli rRNA inh OD600,Ecoli rRNA inh RFP,Calb FLC,Bfl-1 A1 inh
Cn1cnc2cc(NCc3ccccc3Cl)ccc21,-8.6,-9.2,89.8*,-3.8,0.9,2.6,5.1,0.1,11.7,0.4
O=C(Nc1cccc(F)c1)c1c(O)c2cccc3c2n(c1=O)CCC3,-2.1,.,3.6,-6.1,0.4,.,.,.,5.7,-0.4
Cc1cc(C)cc(NC(=O)CN2C(=O)NC(C)(c3ccccc3)C2=O)c1 (stereo not drawn),-10.3,-4.7,-16.1,1.8,-0.9,.,.,.,11.5,0.9
C/C(=N/NC(=O)c1ccco1)c1cccc(NC(=O)c2ccc(C)o2)c1,4.6,-35.1,-1.7,-1.5,-1.4,.,.,.,1.0,0.7
COc1ccccc1CCN=C(N)NS(=O)(=O)c1ccc(C)cc1,1.4,-2.3,-6.6,-25.7,1.9,-12.9,-16.3,-2.6,-1.0,-0.3
CSC1=NC2(C)CCCCC2C12C=CC(=O)C=C2 (stereo not drawn),3.2,11.1,-3.1,2.0,-3.3,0.9,-0.4,0.2,-3.1,1.5
N#CC1(NC(=O)CSc2nc3ncc(Cl)cc3[nH]2)CCCCC1,2.7,1.4,2.9,3.7,-2.9,-12.0,-0.8,5.4,-4.3,0.2
O=C(NC1CCCCC1)C(c1ccncc1)N(Cc1ccc2c(c1)OCO2)C(=O)c1cnsn1 (stereo not drawn),1.8,6.5,7.7,-11.6,-1.9,.,.,.,-0.2,-0.3
Cc1nc(C)c(C(=O)O)c(-c2ccsc2)c1C(=O)O,1.4,2.7,-7.5,-4.8,-0.6,11.5,1.6,1.0,-5.6,-1.1
COc1ccccc1NC(=S)N1CCCC1,-0.7,14.2,.,-11.4,0.5,.,.,.,7.5,-1.5
